LANA-H2A inh – blocks KSHV LANA binding to histone H2A/H2B; Q9QR71; cell-free LANA-H2A/H2B peptide, fluorescence polarization; inhibition, % (concentration not given with the values); 320,000 tested, 0.6% active; in the data active means inhibition mostly above about 10%, no sharp cut-off; inactive means mostly below about 6.7%;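 further: stock transfer was 7.5 nL into about 10 µL; 0% = median of vehicle wells and 100% = median of positive control wells; one replicate is shown; the record names a cut of 25% in any replicate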
Target sequence (Q9QR71 whole entry, looked up): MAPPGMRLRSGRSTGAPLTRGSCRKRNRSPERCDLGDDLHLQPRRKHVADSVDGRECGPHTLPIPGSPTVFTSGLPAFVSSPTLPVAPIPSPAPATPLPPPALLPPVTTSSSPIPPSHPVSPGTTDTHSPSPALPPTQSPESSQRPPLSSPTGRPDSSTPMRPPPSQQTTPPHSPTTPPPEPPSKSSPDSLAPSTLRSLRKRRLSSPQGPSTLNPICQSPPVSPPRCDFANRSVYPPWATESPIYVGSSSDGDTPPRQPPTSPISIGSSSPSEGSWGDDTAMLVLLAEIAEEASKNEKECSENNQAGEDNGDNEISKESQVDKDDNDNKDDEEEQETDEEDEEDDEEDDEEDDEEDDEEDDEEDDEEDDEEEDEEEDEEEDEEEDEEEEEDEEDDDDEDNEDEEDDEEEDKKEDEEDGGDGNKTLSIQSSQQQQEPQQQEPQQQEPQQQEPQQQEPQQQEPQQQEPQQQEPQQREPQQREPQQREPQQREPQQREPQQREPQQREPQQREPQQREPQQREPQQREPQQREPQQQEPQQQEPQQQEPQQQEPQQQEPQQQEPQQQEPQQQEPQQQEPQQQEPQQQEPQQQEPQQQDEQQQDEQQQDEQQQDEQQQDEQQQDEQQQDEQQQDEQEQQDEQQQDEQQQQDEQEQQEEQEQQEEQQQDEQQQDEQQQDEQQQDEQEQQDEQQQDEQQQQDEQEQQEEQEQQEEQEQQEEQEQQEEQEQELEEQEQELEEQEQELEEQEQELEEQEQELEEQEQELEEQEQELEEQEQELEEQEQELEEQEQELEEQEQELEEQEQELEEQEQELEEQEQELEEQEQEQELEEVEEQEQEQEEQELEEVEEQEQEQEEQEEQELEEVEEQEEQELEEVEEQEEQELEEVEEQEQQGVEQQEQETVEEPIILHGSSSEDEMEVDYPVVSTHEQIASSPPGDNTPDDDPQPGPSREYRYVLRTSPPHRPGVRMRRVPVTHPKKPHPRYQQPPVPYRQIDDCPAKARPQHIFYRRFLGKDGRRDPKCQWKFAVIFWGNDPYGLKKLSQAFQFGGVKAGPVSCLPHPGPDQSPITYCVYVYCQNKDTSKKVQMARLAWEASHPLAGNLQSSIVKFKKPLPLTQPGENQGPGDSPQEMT
Bfl-1 A1 inh – inhibitors of the anti-apoptotic protein A1, read as caspase activation; MEF A1-2A-BIM cells, Caspase-Glo 3/7 luminescence, 3 h; percent of clofoctol response, vehicle zero; caspase activation, % (concentration not given with the values); 330,000 tested, 0.066% active; AID 2462;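 active means over half of replicate activation scores above 10%, or exactly half above 10 with the replicate mean above 10; inconclusive means replicate mean below 10 yet half the replicates above 10; inactive means over half of replicates below 10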;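 further: wells of about 30 µL received 50 nL stock; many hits fall short of the cut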
AF4-AF9 inh – MLL-AF4/AF9 protein interaction inhibition. P42568. AID 651704. inhibition, % at 10 µM. AlphaScreen, biotin-AF4 peptide binding to FLAG-AF9. 350,000 tested, 0.47% active;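 active means every replicate reaching a set inhibition limit, whatever the replicate mean, cut at about 25% in these data; inconclusive means mean inhibition reaches that limit but some replicates miss it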;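 further: 0% = plate neutral control median and 100% = total signal loss; the record names both 10 and 1 µM as test concentration; the first replicate is given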
T cruzi repl – T. cruzi replication inhibition; T. cruzi beta-gal in NIH3T3, luminescence, 90 h; inhibition, % (concentration not given with the values); 300,000 tested, 1.4% active; AID 1885;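 active means mean inhibition across valid replicates above about 55%, limit read from the data; inconclusive means mean below that limit but half or more replicates reach it; inactive means mean below it, under half of replicates reach it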;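 further: signal also drops with host cell toxicity which is not excluded here; 0% = plate median of DMSO wells and 100% = zero luminescence signal; higher percent means less beta-gal luminescence so fewer parasites; stock transfer was 50 nL into about 50 µL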
Beta apoptosis – beta cell apoptosis inhibition | INS-1E cytokine-induced death, ATP luminescence, 48 h; percent of positive-control rescue, neutral wells zero | 300,000 tested, 0.8% active | protection from apoptosis, % (test concentration not listed) | AID 435005;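 active means all replicates at 75% or more, or half of them and the mean; inconclusive means half reach 75% but not the mean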;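 further: 0% = cytokine-treated negative control wells and 100% = positive control rescue; higher means more ATP so stronger rescue from cytokine killing; wells of about 40 µL received 100 nL stock; the first replicate is given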
Calb FLC – C. albicans growth modulation with fluconazole; C. albicans CaCi-2 (fluconazole-resistant clinical isolate) + fluconazole, Alamar Blue growth, 48 h; growth inhibition, % (no concentration beside the values); 300,000 tested, 0.57% active;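 active means most replicates above 75%; inconclusive means exactly half above 75%; inactive means most below 75%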;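 further: all wells also contain fluconazole at 8 µg/ml as a sub-toxic cotreatment; 0% = median of DMSO wells and 100% = median of geldanamycin control wells; wells of about 8 µL received 7.5 nL stock; the first replicate is given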
Vif TR-FRET – inhibitors of Vif binding to APOBEC3G peptide, primary screen, biochemical, TR-FRET, GST-Vif 1-94, biotin-A3G peptide, dose response retest (AID 1117319); inhibition, %; hits with a dose series show IC50 in µM; 260,000 tested, 0.57% active; TR-FRET GST-Vif / biotin-A3G peptide binding; higher % means a stronger effect; test concentration not given here; strong numbers were not always called active;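 active means above the screen mean plus three standard deviations and confirmed in dose response; inconclusive means results disagree or hit not tested in dose response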;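 further: Vif residues 1-94 fused to GST binding biotinylated APOBEC3G peptide 110-148; 0% = full assay without inhibitor and 100% = GST in place of GST-Vif; retest series ran down from 100 µM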
RanGTP-Imp inh – disruptors of Ran-importin-beta complex formation – biochemical, FRET, CFP-Ran, YFP-importin-beta, homogeneous, primary screen. AID 2216. 300,000 tested, 1.1% active. inhibition, % (test concentration not listed). cell-free CFP-Ran/YFP-importin-beta FRET ratio;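 active means most replicates above 15%; inconclusive means exactly half above 15%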;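 further: 0% = DMSO wells and 100% = Ran loaded with GDP instead of GTP; wells of about 40 µL received 100 nL stock; the first replicate is given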
An asterisk follows results filed as active; i = inactive; ? = inconclusive; / = no result given; & = joins results of further samples.

nr	SMILES	LANA-H2A inh	Bfl-1 A1 inh	AF4-AF9 inh	T cruzi repl	Beta apoptosis	Calb FLC	Vif TR-FRET	RanGTP-Imp inh
1	COc1ccc(C(CCN2CCCCC2)c2c(O)cc(OC)cc2OC)cc1 (stereo not drawn)	-3.4	-1.1	/	22	1	-22	-3%	2.1
2	CCOCC(=O)Nc1cc(C(=O)Nc2cccc(C)c2C)ccc1Cl	-5.1	0.0	4.3	-3	-5	21	?	8.0
3	COc1ccc(C(=O)NC(C)c2ccc(-n3ccnc3)cc2)cc1[N+](=O)[O-] (stereo not drawn)	-5.2	-0.9	-3.8	11	3	-2	/	-1.5
4	C[C@@]12C(=O)N(c3ccc(Br)cc3)C(=O)N1[C@@H]1c3ccccc3OC[C@@H]1[C@H]2c1ccccc1	-6.0	-0.5	-1.3	/	0	/	/	/
5	CCC(=O)n1nc(-c2ccccc2)nc1NCc1ccccc1	-0.7	0.7	/	-3	-12	-3	-3%	2.6
6	O=C(NCc1ccco1)c1ccccc1-c1ccc(C(F)(F)F)cc1	1.1	2.4	/	-1	-3	6	-11%	-4.6
7	O=C(NCCCO)C(=O)NCCc1ccc(Cl)cc1	3.0	0.2	/	-11	-2	-9	/	-1.1
8	Cc1ccc(NC(=O)COc2ccccc2C(=O)NCc2ccccc2)cc1	-5.7	0.0	-0.4	/	-1	/	/	/
9	Cc1c(NC(=O)C(C)Sc2ccccc2)c(=O)n(-c2ccccc2)n1C (stereo not drawn)	2.8	0.7	/	-14	3	-5	2%	3.5
10	COc1ccc(CN2CCS(=O)(=O)CC2)cc1OC	-3.6	0.2	-2.1	-11	-1	14	17%	-3.7
11	O=C1OC(c2ccc(F)cc2)=C/C1=C\c1ccc(O)cc1	1.6	-0.5	3.7	-8	-1	-8	-1%	-3.3
12	Nc1ccc(-c2ccc(N)c(C(=O)O)c2)cc1C(=O)O	5.4	-0.5	-3.6	1	3	-2	10%	-5.9

Values by screen from the entries so far.
Nos. 1 to 12 in LANA-H2A inh read -3.4, -5.1, -5.2, -6.0, -0.7, 1.1, 3.0, -5.7, 2.8, -3.6, 1.6, 5.4

Other results:
nr	SMILES	LANA-H2A inh	Bfl-1 A1 inh	AF4-AF9 inh	T cruzi repl	Beta apoptosis	Calb FLC	Vif TR-FRET	RanGTP-Imp inh
13	COc1ccc(C2N(C(=O)c3ccccc3)CCN2C(=O)c2ccc(C)cc2)cc1 (stereo not drawn)	8.9	0.1	4.1	20	0	-18	1%	-3.3
14	Cc1cc(C(=O)N/N=C/c2ccc(O)c([N+](=O)[O-])c2)n[nH]1	-1.7	-4.5	8.6	6	-13	-10	/	3.3
15	Cc1nc2ccccc2cc1C(=O)N/N=C/c1ccc([N+](=O)[O-])cc1	-1.8	-0.4	4.7	-5	1	-8	/	2.6
16	Cc1ccc(C(=O)C(C)OC(=O)CCS(=O)(=O)c2ccc(C)cc2)cc1 (stereo not drawn)	-0.7	1.3	-0.3	/	1	/	0%	/
17	COC(=O)c1nnn(-c2ccccc2)c1N	-0.2	0.2	/	10	4	11	14%	-2.5
18	O=C(Nc1ccccc1)N1C2CCC1CC(O)(c1cccnc1)C2 (stereo not drawn)	1.3	0.0	/	6	3	9	10%	?
19	CCOc1ccccc1-c1ccc(C(=O)NCc2ccccc2)o1	-2.0	-0.3	2.2	-2	-4	12	-2%	6.2
20	Cc1ccc2[nH]c(=O)c(C3=NN(C(=O)CCC(=O)O)C(c4cccs4)C3)c(-c3ccccc3)c2c1 (stereo not drawn)	0.8	0.7	0.5	-27	/	12	2%	3.3
21	CCCCNC(=O)c1cc2c(C)cc(C)cc2[nH]1	4.3	0.9	-0.3	4	0	10	28%	0.0
22	Cc1ccc(SCC(=O)OCc2csc(CC(=O)Nc3ccccc3C)n2)cc1C	0.6	-1.0	-8.9	/	-4	/	-4%	/
23	CN1CCN(C(=O)Cn2c(C(F)(F)F)nc3ccccc32)CC1	4.2	-0.5	/	-16	-2	3	1%	-1.4
24	CCN(CC)S(=O)(=O)c1cccc(C(=O)Nc2cc(C)nn2-c2ccccc2)c1	/	0.3	/	-8	-6	-10	/	0.2

Next section; it opens with the 2 that closed the last part.
nr	SMILES	LANA-H2A inh	Bfl-1 A1 inh	AF4-AF9 inh	T cruzi repl	Beta apoptosis	Calb FLC	Vif TR-FRET	RanGTP-Imp inh
23	CN1CCN(C(=O)Cn2c(C(F)(F)F)nc3ccccc32)CC1	4.2	-0.5	/	-16	-2	3	1%	-1.4
24	CCN(CC)S(=O)(=O)c1cccc(C(=O)Nc2cc(C)nn2-c2ccccc2)c1	/	0.3	/	-8	-6	-10	/	0.2
25	Cc1cccc(C)c1OCC(=O)Nc1ccc(N2CCOCC2)cc1	2.7	1.0	0.2	2	4	-5	17%	2.3
26	O=C(CNC(=O)c1ccc([N+](=O)[O-])cc1)N/N=C/c1c[nH]c2ccccc12	-1.3	-0.6	0.7	10	9	0	/	2.1
27	O=C(O)C1CC=CCC1C(=O)Nc1ccc(Oc2ccc(Cl)cc2)cc1 (stereo not drawn)	7.4	0.9	-12	-4	0	-9	/	0.4
28	Cc1ccc(NC(=O)C(C)N2C(=O)C3CC=C(Cl)CC3C2=O)cc1 (stereo not drawn)	-1.1	0.6	/	-12	/	-4	-5%	6.2
29	C=CCNCCOCCOc1ccccc1-c1ccccc1	-3.0	0.7	2.0	-8	2	4	-13%	-0.8
30	OC(c1cccc(Cl)c1)c1nccc2ccccc12 (stereo not drawn)	-0.1	0.7	-2.7	-8	-11	-11	/	3.8
31	COc1ccc(NS(=O)(=O)c2cc(NC(=O)c3cnc(C)cn3)ccc2N2CCCCC2)cc1	-2.8	-0.2	/	42	/	-16	3%	-1.9
32	Cc1cc(C(=O)N/N=C\C(Br)=C\c2ccccc2)c(C)o1	-5.0	-2.1	4.6	-2	-16	4	1%	3.1
33	Cc1csc2nc(CSc3ccc(Cl)cc3)cn12	4.5	-6.0	/	16	-13	-63	1%	-1.5
34	COc1ccc(N2Cc3cccc(C(=O)N4CCN(C(=O)c5ccco5)CC4)c3C2=O)cc1	9.4	0.7	-0.2	-4	-3	-6	15%	4.4
35	N#CCCn1nc(-c2ccc(Cl)cc2)cc1Nc1ccccc1NC(=O)C(F)(F)F	-3.6	0.4	/	14	-2	29	/	-3.9
36	COc1nccc(C(F)(F)F)c1C(=O)NC(=O)Nc1ccccc1	6.7	0.9	-0.2	-19	4	15	-2%	-1.4
37	CCCN(CCC)CCCNc1ccc(C(=O)Nc2cccc(OC)c2)cc1[N+](=O)[O-]	-1.0	-0.8	14	13	/	4	4%	2.3
38	COCC(=O)N1CCC(Oc2ccc(C(=O)NCc3cc(C(C)C)no3)cc2)CC1	-6.6	0.3	-1.0	-14	6	-1	/	-0.4
39	COc1cc2c(cc1OC)-c1cc(NC3CCCCCC3)nc(=O)n1CC2	-14	0.1	1.6	17	-34	-15	5%	1.3
40	O=C(O)C1CCCN1C(=O)NC1CCCCC1 (stereo not drawn)	-2.7	-0.3	-6.1	-10	1	12	/	4.9
41	CCN1C(=O)C(CC(=O)NCc2ccc(Cl)cc2)N(CC)C1=O (stereo not drawn)	-0.6	0.5	9.1	-21	6	-1	-7%	-1.9
42	COc1ccc(-n2nc(C(=O)O)c3ccccc3c2=O)cc1	-2.1	1.0	/	-19	-3	4	1%	1.6
43	CCOC(=O)N1CCN(S(=O)(=O)c2cc(-c3nn4c(C)nnc4c4ccccc34)ccc2C)CC1	3.5	-0.5	/	39	1	0	-5%	0.7
44	Cc1[nH][nH]c(=O)c1C(c1c(C)[nH][nH]c1=O)c1cn(Cc2ccc(Cl)c(Cl)c2)c2ccccc12	i	-1.0	9.4	-18	-8	-11	/	-2.4
45	CC(=O)c1ccc(NC(=O)CSc2nc(Nc3ccccc3)nc(N3CCOCC3)n2)cc1	-7.8	-0.4	0.8	24	0	2	/	2.3
46	COc1ccccc1C(=O)NNC(=O)C(=O)NC(C)(C)C	-0.3	2.2	-0.5	2	-3	-19	9%	-2.4
47	CCCN=C1NC(=O)C(CC(=O)NCCc2ccc(OC)c(OC)c2)S1 (stereo not drawn)	0.7	1.0	2.0	-22	1	-2	17%	0.3
48	Cc1oc(-c2ccc(Cl)cc2)[n+]([O-])c1C	0.2	-0.7	/	-1	-9	1	1%	0.3
49	COc1cccc(CNn2cn[nH]c2=S)c1OCc1ccccc1	-4.5	0.8	-6.2	4	-4	6	-3%	0.9
50	COc1cc(NC(=O)N[C@@H](Cc2c[nH]c3ccccc23)C(=O)O)c(C(=O)O)cc1OC	2.1	2.0	-8.2	-15	-7	4	-4%	-1.1
51	COC(=O)c1ccccc1NC1=C/C(=N\S(=O)(=O)c2cccs2)c2ccccc2C1=O	-1.1	-6.8	12	47	96*	38	1%&17%	-5.4
52	COC(=O)c1ccccc1OCCCN(C)C	-5.5	0.1	10	-17	-6	-4	3%	0.5
53	Clc1ccccc1-c1nn2c(-c3ccccn3)nnc2s1	-0.6	-0.3	/	9	10	-8	3%	-0.1
54	COc1cc(/C=C(\C#N)C(=O)NCC2CCCO2)c([N+](=O)[O-])cc1OC (stereo not drawn)	2.4	0.6	/	2	6	-11	0%	0.0
55	CC(=O)Nc1ccc(NC(=O)c2cccc3c2-c2ccccc2C3=O)cc1	-1.0	0.6	-1.4	-37	3	1	/	0.8
56	CS(=O)(=O)N1CCN(c2ccccc2[N+](=O)[O-])CC1	1.1	0.0	-13	-2	/	-12	/	0.3
57	O=S(=O)(Cc1ccccc1)Nc1ccc(F)cc1	1.1	1.1	0.3	-7	2	2	-8%	-1.1
58	CCC(=O)NC(Nc1sc2c(c1C(=O)OC)CCCC2)(C(F)(F)F)C(F)(F)F	3.6	-0.9	/	-5	-5	-11	-7%	1.5
59	CCCCC(=O)/C=C/n1c(=S)oc2ccccc21	-1.3	-0.2	2.3	33	10	-5	/	-3.4
60	COc1ccc(C(=O)NCc2cn3ccsc3n2)cc1OC	1.7	0.0	-15	-6	-2	-2	3%	-0.6
61	COc1ccccc1S(=O)(=O)CC(O)COc1ccccc1Cl (stereo not drawn)	0.0	-0.2	-3.0	-15	-4	-1	/	-0.1
62	Cn1cnnc1SCC(=O)c1cc2ccccc2o1	2.8	-0.3	-1.5	-16	-6	1	4%	-0.5
63	O=C(CSc1nncn1-c1cccnc1)Nc1cccc(C(F)(F)F)c1	-5.7	0.7	-5.0	5	4	-3	/	-5.8
64	Cc1ccc(S(=O)(=O)NCC(=O)OCC(=O)c2ccc(Br)s2)cc1	-3.6	0.2	/	4	-5	2	-38%	-3.9
65	Cc1c(NC(=O)C(C)OC(=O)c2ncc(Cl)c(Cl)c2Cl)c(=O)n(-c2ccccc2)n1C (stereo not drawn)	-1.1	0.1	-0.3	18	-2	-7	2%	-1.5
66	Cc1cc2ccccn2c1C(=O)c1ccc(S(=O)(=O)N(C)C)cc1	0.5	-0.9	3.6	6	1	1	0%	0.5
